Screening results deposited in PubChem BioAssay by Broad Institute.
AF4-AF9 inh = blocks AF4 peptide binding to human AF9 | P42568 | AlphaScreen, biotin-AF4 peptide binding to FLAG-AF9 | inhibition, % at 10 µM | 350,000 compounds, 0.47% hits | AID 651704;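 active = every replicate reaching a set inhibition limit, whatever the replicate mean, cut at about 25% in these data; inconclusive = mean inhibition reaches that limit but some replicates miss it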;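 also: 0% = plate neutral control median and 100% = total signal loss; the record names both 10 and 1 µM as test concentration; the first replicate is given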
Target sequence (P42568 whole entry, looked up): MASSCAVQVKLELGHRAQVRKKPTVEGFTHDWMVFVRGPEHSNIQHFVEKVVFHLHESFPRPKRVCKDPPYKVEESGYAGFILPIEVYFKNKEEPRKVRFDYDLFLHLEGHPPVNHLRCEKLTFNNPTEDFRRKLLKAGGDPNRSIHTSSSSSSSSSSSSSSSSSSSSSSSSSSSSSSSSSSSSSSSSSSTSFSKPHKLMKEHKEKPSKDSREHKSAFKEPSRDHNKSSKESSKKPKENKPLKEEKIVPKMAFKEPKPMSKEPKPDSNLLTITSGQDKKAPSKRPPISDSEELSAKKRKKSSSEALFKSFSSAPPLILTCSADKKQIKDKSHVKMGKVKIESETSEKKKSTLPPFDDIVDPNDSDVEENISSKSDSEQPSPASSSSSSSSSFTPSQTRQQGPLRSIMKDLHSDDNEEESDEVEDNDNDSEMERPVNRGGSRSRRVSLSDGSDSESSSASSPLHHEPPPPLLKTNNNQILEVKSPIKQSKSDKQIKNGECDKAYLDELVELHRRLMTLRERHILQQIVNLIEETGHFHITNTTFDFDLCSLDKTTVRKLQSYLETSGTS
RanGTP-Impb inh = disruptors of Ran-importin-beta complex formation – biochemical, FRET, CFP-Ran, YFP-importin-beta, homogeneous, primary screen; cell-free CFP-Ran/YFP-importin-beta FRET ratio; inhibition, % (no concentration beside the values); 300,000 compounds, 1.1% hits; AID 2216;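 active = most replicates above 15%; inconclusive = exactly half above 15%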;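 also: 0% = DMSO wells and 100% = Ran loaded with GDP instead of GTP; wells of about 40 µL received 100 nL stock; the first replicate is given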
ALR inh = human ALR oxidase inhibition via reduced H2O2 | P55789 | purified ALR, DTT oxidation, H2O2 HRP-luminol luminescence | inhibition, % (no concentration beside the values) | 290,000 compounds, 3.8% hits;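 active = mean and each replicate at 75% or more; inconclusive = only one of the two met; inactive = neither met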;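 also: stock transfer was 7.5 nL into about 7.5 µL; 0% = neutral wells and 100% = wells with inactivated enzyme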
Target sequence (P55789 whole entry, looked up): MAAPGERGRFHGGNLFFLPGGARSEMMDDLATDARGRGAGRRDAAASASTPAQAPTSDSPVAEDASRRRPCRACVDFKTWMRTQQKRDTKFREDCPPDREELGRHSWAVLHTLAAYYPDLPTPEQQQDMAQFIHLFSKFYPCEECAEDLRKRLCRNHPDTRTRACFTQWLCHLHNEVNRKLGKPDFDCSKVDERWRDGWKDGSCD
FGF22 binding = binders of recombinant human FGF22 by thermal shift; Q9HCT0; SYPRO orange fluorescence; percent of sucrose octasulfate shift, DMSO zero; calls only at 9.99 µM; 340,000 compounds, 1.5% hits; AID 651658;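 active = melting point raised past a set limit in the mean and every replicate; inconclusive = no clear call; three in four hits are not shown here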
Target sequence (Q9HCT0 whole entry, looked up): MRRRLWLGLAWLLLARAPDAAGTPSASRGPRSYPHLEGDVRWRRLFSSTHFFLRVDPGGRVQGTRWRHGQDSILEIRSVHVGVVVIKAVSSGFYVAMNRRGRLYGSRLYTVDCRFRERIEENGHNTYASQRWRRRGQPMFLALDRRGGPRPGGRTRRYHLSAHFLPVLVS
T cruzi inh = blocks replication of Trypanosoma cruzi | inhibition, % (no concentration beside the values) | AID 1885 | 300,000 compounds, 1.4% hits | T. cruzi beta-gal in NIH3T3, luminescence, 90 h;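 active = mean inhibition across valid replicates above about 55%, limit read from the data; inconclusive = mean below that limit but half or more replicates reach it; inactive = mean below it, under half of replicates reach it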;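 also: signal also drops with host cell toxicity which is not excluded here; 0% = plate median of DMSO wells and 100% = zero luminescence signal; higher percent means less beta-gal luminescence so fewer parasites; stock transfer was 50 nL into about 50 µL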
Calb FLC = C. albicans growth modulation with fluconazole; growth inhibition, % (test concentration not listed); C. albicans CaCi-2 (fluconazole-resistant clinical isolate) + fluconazole, Alamar Blue growth, 48 h; AID 1979; 300,000 compounds, 0.57% hits;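 active = most replicates above 75%; inconclusive = exactly half above 75%; inactive = most below 75%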;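 also: all wells also contain fluconazole at 8 µg/ml as a sub-toxic cotreatment; 0% = median of DMSO wells and 100% = median of geldanamycin control wells; wells of about 8 µL received 7.5 nL stock; the first replicate is given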
rRNA inh HTS = inhibits bacterial ribosomal RNA function over humanized ribosomes. 350,000 compounds, 1.6% hits. GFP signal change (wild-type ribosome), % (no concentration beside the values). E. coli WT GFP vs humanized-ribosome RFP mutants, fluorescence, 24 h; hits give low values; DMSO median 0, no signal -100. AID 720706;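 active = significant combined selectivity score with lowered wild-type GFP, culture density cut under 30%, mutant RFP and density less affected; inactive = any of these conditions unmet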; also: one replicate is shown; some compounds called inactive have numbers as strong as hits
Beta cell apopt = blocks beta cell apoptosis; INS-1E cytokine-induced death, ATP luminescence, 48 h; percent of positive-control rescue, neutral wells zero; protection from apoptosis, % (no concentration beside the values); 300,000 compounds, 0.8% hits;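 active = all replicates at 75% or more, or half of them and the mean; inconclusive = half reach 75% but not the mean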;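 also: 0% = cytokine-treated negative control wells and 100% = positive control rescue; higher means more ATP so stronger rescue from cytokine killing; wells of about 40 µL received 100 nL stock; the first replicate is given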
rRNA inh HTS OD600 = further read-out of rRNA inh HTS, marked with its call; OD600 change, %; measured here: OD600 growth;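 optical density of the mix in the first replicate; 0 = DMSO median and -100 = no signal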
rRNA inh HTS RFP = further read-out of rRNA inh HTS, marked with its call; RFP signal change, %; measured here: RFP humanized mutant strains;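 first replicate; 0 = DMSO median and -100 = no signal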
* hit, by the source's call; i = inactive; ? = inconclusive; . = no result given; + = active, no number. These rows are one share of the data; the hit share may differ from the screen's.

SMILES | AF4-AF9 inh | RanGTP-Impb inh | ALR inh | FGF22 binding | T cruzi inh | Calb FLC | rRNA inh HTS | rRNA inh HTS OD600 | rRNA inh HTS RFP | Beta cell apopt
CCSc1nnc(NC(=O)C2CCN(S(=O)(=O)c3ccccc3C(F)(F)F)CC2)s1 | . | 2.8 | 0 | . | 20 | -3 | . | . | . | -4
CCN(c1ccccc1)S(=O)(=O)c1ccc(Cl)c(NC(=O)CN2C(=O)NC3(CCCC3)C2=O)c1 | 2.6 | -4.0 | . | i | 28 | 96* | -27 | -22 | 3.6 | -2
O=C1C(Cl)=C(NS(=O)(=O)c2ccc([N+](=O)[O-])cc2)C(=O)c2ccccc21 | 6.3 | -0.8 | 0 | + | 11 | 56 | -1 | 2 | 2.1 | -32
Cc1ccc(C(=O)NC(=S)Nc2ccc(Oc3ccc(Cl)cc3)cc2)cc1 | . | -0.3 | . | . | 65* | 7 | . | . | . | -2
CSCCC(NC(=O)c1ccccc1)C(=O)NCCCn1nc(C)cc1C (centres undefined) | -2.5 | . | 0 | i | . | . | 2 | 4 | -0.1 | 2
CC(=O)c1cccc(NC(=O)N2CCCC(C(=O)c3cc(F)ccc3F)C2)c1 (centres undefined) | -0.7 | 3.6 | 3 | i | 7 | 4 | 2 | 2 | -2.1 | -3
COc1cc(/C=C/C(=O)OCC(=O)NC(=O)NC23CC4CC(CC(C4)C2)C3)ccc1OCC#N | . | 3.1 | -4 | . | -7 | -4 | . | . | . | 4
CCOC(=O)c1nn(-c2cccc(OC)c2)c2nc(CC)c(C#N)c(=O)n12 | 11 | -1.9 | 5 | i | -4 | ? | 10 | 15 | -8.3 | -3
CC1CCCCN1C(=O)COC(=O)c1cc([N+](=O)[O-])ccc1N1CCOCC1 (centres undefined) | 0.2 | -1.2 | 0 | . | -6 | -17 | 7 | 10 | 0.2 | 1
CCOc1cc(S(=O)(=O)NCC2OCCc3ccccc32)c(OCC)cc1-n1cnnn1 (centres undefined) | . | 1.8 | -3 | . | 20 | 20 | . | . | . | 4
Cc1ccc(NC(=O)N(Cc2cccs2)Cc2cc3cc4c(cc3[nH]c2=O)OCO4)cc1 | -0.9 | 0.5 | -17 | i | 35 | -6 | 3 | 6 | 5.5 | 15
O=C(Nc1ccc2nc(-c3cccs3)[nH]c2c1)c1ccco1 | . | 0.7 | -12 | . | 13 | 6 | . | . | . | 16
Cc1ccc(NC(=O)CSc2ccc(-c3ccccn3)nn2)c(C)c1 | -17 | 2.1 | 0 | i | 22 | 8 | 9 | 12 | 3.1 | 0
CC(NC(=O)c1cc(Br)cs1)C1CCCO1 (centres undefined) | 1.3 | -2.5 | -4 | i | -9 | -8 | 2 | 4 | -3.1 | -3
Cc1ccc(-c2nc(-c3ccncc3)no2)c(Cl)c1 | 0.3 | 4.8 | -2 | i | 22 | 2 | 3 | 0 | -0.2 | .
Cc1ccc(C(C)NC(=O)c2ccc3c(c2)OCO3)cc1C (centres undefined) | -1.5 | -1.0 | -1 | i | -7 | -21 | 7 | 3 | -0.3 | -4
Cc1ccc(-n2c(C)cc(/C=C3\SC(=O)NC3=O)c2C)cc1 | -0.9 | 4.2 | 11 | i | 14 | . | -1 | -8 | 1.4 | 10
CC(=O)c1cc2c(cc1NC(=O)CN(C)S(=O)(=O)c1cccs1)OCO2 | 0.3 | . | -6 | i | . | . | -1 | -8 | 0.9 | -11
COCCN1Cc2cccc(C(=O)N3CCN(c4cc(C)ccc4C)CC3)c2C1=O | -2.2 | -1.6 | 2 | i | 15 | -4 | -2 | 0 | 7.2 | -9
N#Cc1ccccc1NC(=O)CC1c2ccccc2Oc2ccccc21 | -17 | 1.3 | 3 | i | 0 | -38 | -8 | -9 | -3.7 | 9
CCN(c1ccccc1)S(=O)(=O)c1ccc2[nH]c(=O)c(=O)[nH]c2c1 | 0.2 | -0.6 | -3 | i | -7 | 1 | . | . | . | -1
COc1ccc(Cn2ccnc2CO)cc1[N+](=O)[O-] | 1.0 | 4.8 | -4 | i | -13 | 3 | -1 | 6 | -0.1 | -6
O=C(Nc1cccc2ccccc12)C(=O)C1C(=O)Nc2ccccc21 (centres undefined) | -4.2 | 4.4 | 37 | i | 6 | -5 | -14 | -3 | 8.3 | 1
CCS(=O)(=O)c1ccc2c(c1)N(S(=O)(=O)c1ccccc1)CC(C(=O)O)O2 (centres undefined) | . | 5.5 | -21 | . | -3 | 5 | . | . | . | -5
Cc1ccc(CC2S/C(=C(/C#N)C(=O)N3CCOCC3)N(c3ccccc3)C2=O)cc1 (centres undefined) | -1.7 | -3.8 | 2 | i | -7 | -3 | 8 | 10 | -0.5 | -1

Printed as active in FGF22 binding, of those listed so far:
Molecule	AF4-AF9 inh	RanGTP-Impb inh	ALR inh	FGF22 binding	rRNA inh HTS	rRNA inh HTS OD600	rRNA inh HTS RFP
O=C1C(Cl)=C(NS(=O)(=O)c2ccc([N+](=O)[O-])cc2)C(=O)c2ccccc21	6.3	-0.8	0	+	-1	2	2.1

Following part.
SMILES | AF4-AF9 inh | RanGTP-Impb inh | ALR inh | FGF22 binding | T cruzi inh | Calb FLC | rRNA inh HTS | rRNA inh HTS OD600 | rRNA inh HTS RFP | Beta cell apopt
O=C(Nc1cccs1)Nc1c(F)c(F)cc(F)c1F | 0.7 | -1.1 | -3 | i | 3 | 17 | 17 | 8 | 7.2 | -1
CN(CCc1cn[nH]c1)Cc1nc(Cc2ccccc2F)no1 | -0.7 | 2.3 | -5 | i | -8 | -4 | 1 | 0 | -1.0 | -1
COc1ccc(OC)c(C2=NS(=O)(=O)N(C)C(C(=O)Nc3cccc(C(C)=O)c3)=C2)c1 | -0.4 | 8.0 | -1 | i | -5 | -3 | -1 | -20 | 2.9 | 2
CC1C(=O)N2CCCc3cc(S(=O)(=O)Nc4ccccc4F)cc1c32 (centres undefined) | 0.8 | 0.3 | -10 | i | -8 | -3 | -1 | 2 | -2.3 | -7
Cc1cccc([N+](=O)[O-])c1C(=O)O | . | . | -20 | i | . | . | 10 | 11 | -0.3 | -10
Cc1c(CC(=O)N[C@@H](C)C(=O)O)c(=O)oc2cc3oc4c(c3cc12)CCCC4 | -0.7 | ? | 6 | i | -7 | 0 | -2 | -2 | 1.3 | -8
O=c1c(Oc2ccccc2Br)c(C(F)(F)F)oc2c(CN3CCCC3)c(O)ccc12 | . | 51* | 15 | . | -5 | -1 | . | . | . | -4
C[N+]12CCCCC1C(COC(=O)c1ccc3c(c1)OCO3)CCC2 (centres undefined) | 0.2 | 4.8 | 1 | . | -5 | 28 | 11 | 7 | -7.0 | -5
CCn1c(SCC(=O)NNC(=O)c2ccc(OC)cc2)nnc1-c1ccco1 | 1.2 | -2.8 | -9 | i | 1 | -11 | 4 | 4 | 0.5 | -17
CCOC(=O)C1=NN(c2ccc(C)cc2)C2(S1)SC(C(C)=O)=C(C)N2c1ccccc1 (centres undefined) | . | -3.2 | -9 | . | -17 | -1 | . | . | . | -5
O=C1C=C(c2cccc3c2Oc2ccccc2S3)C[C@@H](c2ccc(Cl)cc2)C1 | -1.0 | . | 1 | i | . | . | 17 | 10 | 16 | 9
C#CCNC(=O)C1=C[C@H](C(C)(C)C)C[C@H](OCc2ccc(CO)cc2)O1 | -3.0 | -2.2 | -18 | i | 9 | 9 | -11 | -4 | -0.7 | -6
COc1cc(Cl)ccc1OCc1cc(C(=O)N2C[C@H]3CC[C@H]2C3)no1 | 0.7 | -1.6 | -1 | i | 1 | -6 | 4 | 5 | 0.5 | 0
O=C(CCn1cnnn1)Nc1ccc(Cl)c(Cl)c1 | -1.0 | 1.6 | . | i | -35 | 17 | 6 | -7 | -3.9 | -4
COc1ccc2c(c1)CCc1c(C(=O)N3CCCC3)noc1-2 | . | -0.6 | -11 | . | -6 | 3 | . | . | . | 6
CN(C)S(=O)(=O)N1CCN(C(=O)N(c2ccccc2)c2ccccc2)CC1 | . | -4.9 | -6 | . | -9 | 60 | . | . | . | .
CC(=O)Nc1ccc(S(=O)(=O)Oc2ccc(Br)cc2C(=S)N2CCOCC2)cc1 | 8.4 | 2.0 | -12 | i | 18 | 3 | -8 | -25 | -1.8 | .
CC(C)NC(=O)CCn1c(=S)oc2ccccc21 | -2.8 | -1.2 | -4 | i | -11 | -16 | 15 | 13 | 4.2 | 1
Cc1ccc(Oc2nsnc2N2CCOCC2)cc1 | . | -1.6 | 5 | . | -1 | 11 | . | . | . | -2
CCn1c(SCC(=O)Nc2ccccc2-c2ccccc2)nnc1-c1ccoc1C | . | 2.7 | -2 | . | -3 | -1 | . | . | . | -1
O=C(Nc1ncnc2sc3c(c12)CCCCC3)c1ccc(F)cc1 | . | 2.0 | 1 | . | -1 | 13 | . | . | . | -10
COCc1c(C(N)=O)nnn1-c1nonc1N | . | 1.2 | . | . | 18 | 6 | . | . | . | -2
Cn1c(SCC(=O)NCc2ccc3c(c2)OCO3)nc2c(c1=O)SCC2 | -1.0 | -1.2 | 47 | i | -3 | -8 | 17 | 16 | 2.9 | 2
O=C(Cc1ccc(Cl)cc1)Nc1ccccc1Sc1ccccc1 | . | 0.7 | -3 | . | 15 | 7 | . | . | . | -12
CCOc1ccc(OC(=O)c2ccc3c(=O)n4c(nc3c2)CCC4)cc1 | . | . | 3 | . | -8 | 6 | . | . | . | 2
Going on with the list.
SMILES | AF4-AF9 inh | RanGTP-Impb inh | ALR inh | FGF22 binding | T cruzi inh | Calb FLC | rRNA inh HTS | rRNA inh HTS OD600 | rRNA inh HTS RFP | Beta cell apopt
CCNC(=O)COC(=O)c1ccc(S(=O)(=O)N2CCCCCC2)cc1 | . | 5.2 | -1 | . | 15 | -3 | . | . | . | -6
O=C(NCC1CCCO1)C(c1ccncc1)N(Cc1cccs1)C(=O)CN1C(=O)c2ccccc2S1(=O)=O (centres undefined) | -3.3 | -4.1 | 8 | i | -4 | -3 | 8 | 5 | 2.8 | -2
C/C(=N\NC(=O)CCn1nnc2ccccc21)c1ccco1 | ? | 4.9 | 0 | i | 3 | 7 | 2 | 2 | -1.5 | -7
Cc1ccccc1C(=O)NC1CC2CCC(C1)N2Cc1ccccc1 (centres undefined) | -1.2 | -0.2 | -11 | i | 23 | -22 | 9 | 14 | 4.7 | 3
COc1ccc(S(=O)(=O)N2CCC(C(=O)NC3CC3)CC2)cc1 | 0.9 | -0.3 | . | i | -1 | 17 | 2 | -21 | 1.8 | -5
Cc1cc(C)n(-c2nc3ccccc3c(=O)n2OCCOc2ccccc2)n1 | . | 0.9 | 0 | . | -6 | 0 | . | . | . | .
Cn1nnnc1SCC(=O)Nc1ccc(Br)cc1Br | 0.5 | . | 2 | i | . | . | 0 | 4 | -3.8 | -6
CC(=O)c1c(C)[nH]c(C(=O)OCc2cccc(C)c2)c1C | -0.6 | -0.3 | -4 | i | 22 | 0 | -2 | -22 | -1.4 | 13
CCOC(=O)Cc1csc(NC(=O)Nc2cccs2)n1 | 4.7 | 9.5 | 46 | i | -3 | -4 | -9 | -12 | -0.8 | -7
COc1cccc(/C=N/N2CCN(c3ccc(Cl)cc3)CC2)c1OC | -0.1 | 2.7 | 9 | i | 17 | 3 | 5 | 5 | -5.6 | -3
COc1cc(CNC(=O)OCC(C)C)cc(OC)c1OC | . | 0.0 | 2 | . | -8 | -8 | 0 | 2 | -0.3 | 0
